Source: PubChem BioAssay (National Center for Advancing Translational Sciences (NCATS))
VDR inhibitor: inhibitors of human vitamin D receptor. P11473. Potency, µM, for inactives: max response, negative = inhibition, most hits filed as inhibitors. hit rate 0.93% among 400,000. AID 504847. VDR-SRC2-3 peptide fluorescence polarization, 2 h; active = well fitted inhibition curve with a large enough effect; inconclusive = small, poorly fitted or top-dose-only effect, or another doubt; inactive = no such curve, though single readings can be large or run the other way; also: series mostly up to about 120 µM
Target sequence (P11473 whole entry, looked up): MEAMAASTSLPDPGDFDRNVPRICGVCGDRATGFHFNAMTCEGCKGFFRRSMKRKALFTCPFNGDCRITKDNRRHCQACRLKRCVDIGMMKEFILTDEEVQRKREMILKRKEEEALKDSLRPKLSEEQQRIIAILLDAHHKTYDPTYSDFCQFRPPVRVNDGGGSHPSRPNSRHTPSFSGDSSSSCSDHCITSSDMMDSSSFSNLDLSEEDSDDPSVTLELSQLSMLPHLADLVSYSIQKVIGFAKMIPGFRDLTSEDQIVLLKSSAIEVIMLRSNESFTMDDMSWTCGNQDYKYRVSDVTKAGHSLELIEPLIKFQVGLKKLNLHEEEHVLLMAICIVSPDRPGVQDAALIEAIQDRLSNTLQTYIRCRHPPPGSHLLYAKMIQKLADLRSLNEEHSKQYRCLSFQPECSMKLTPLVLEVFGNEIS
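Fluorescence polarization assay of small-molecule disruption of VDR binding to coregulator peptide SRC2-3. Compounds and controls pin-transferred, then read after 2 h incubation at ambient room temperature.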
* hit, by the source's call; ? = inconclusive; & = joins results of further samples. % is scaled to controls: 0 for no effect and ±100 for the full control effect; potency is read from the fitted curve at half-maximal effect. These rows are one share of the data, so the mix of outcomes need not match the whole.

Start of the listing, in advance:
VDR inhibitor,molecule
-3%,FC(F)(F)c1cc(CCN2C(=S)NC[C@@H]2Cc2ccccc2)cc(C(F)(F)F)c1
-19%,Cc1ccc(NC(=O)c2cc(S(=O)(=O)N3CCCCC3)c[nH]2)cc1C
-7%,CN(C)c1ccc(/C=C(/NC(=O)c2ccccc2Cl)C(=O)NCCN2CCOCC2)cc1
1%,O=C(c1ccc2c(c1)OCO2)N1CCCC(c2ccccc2)C1 (stereo not drawn)

The listing, repeating the preview:
VDR inhibitor,molecule
-3%,FC(F)(F)c1cc(CCN2C(=S)NC[C@@H]2Cc2ccccc2)cc(C(F)(F)F)c1
-19%,Cc1ccc(NC(=O)c2cc(S(=O)(=O)N3CCCCC3)c[nH]2)cc1C
-7%,CN(C)c1ccc(/C=C(/NC(=O)c2ccccc2Cl)C(=O)NCCN2CCOCC2)cc1
1%,O=C(c1ccc2c(c1)OCO2)N1CCCC(c2ccccc2)C1 (stereo not drawn)
-4%,Cc1ccc(N(C(=O)C2CCC(=O)N2)C2(C(=O)NC3CCCC3)CCCCC2)cc1 (stereo not drawn)
-25%,COc1cc2c3c(c1)C(C)=CC(C)(C)N3C(=O)C2=O
10%,O=C(NC1CCCCNC1=O)c1ccccc1 (stereo not drawn)
16%,COc1cc(/C=N/NC(=O)c2sc3nc(C)cc(C)c3c2N)ccc1O
-9%,CCCCC1=CC2=CC(=O)C(C)(OC(=O)CC)C(=O)C2=CN1Cc1ccc(OC)cc1 (stereo not drawn)
12%,N=C1/C(=C\c2ccc(-c3cc(Cl)cc(Cl)c3)o2)C(=O)N=C2SC=C(c3ccccc3)N12
5%,COc1ccc(N2CC(NC(=O)c3cc4ccccc4o3)CC2=O)cc1 (stereo not drawn)
13%,Cc1cccc(NC(=O)C(=O)NCCc2csc(-c3ccc(F)cc3)n2)c1C
17%,COc1ccc(/C=C/C(=O)Nc2nonc2NC(C)=O)cc1
8%,OC(COc1ccc2c(c1)OCO2)CN1CCCCC1 (stereo not drawn)
6%,C=CCc1ccc(OCCN2CCc3ccccc3C2)c(OC)c1
-8%,O=C1CCCN1CC(O)CS(=O)(=O)c1ccccc1 (stereo not drawn)
10%,O=C1CSC(c2ccccn2)N1c1ccc2ccccc2c1 (stereo not drawn)
11%,CN(Cc1ccccc1)c1nc(-c2ccc([N+](=O)[O-])cc2)nc2ccccc12
?,CCC(C)NC(=O)c1ccc2c(SCC(=O)O)c3c(nc2c1)CCCC3 (stereo not drawn)
7%,Cc1cc(C)c(OCCCn2ccnc2)c(C)c1
3%,CC(C)NC(=S)N=Nc1c(O)[nH]c2ccc([N+](=O)[O-])cc12
-4%,CCCS(=O)(=O)N1CCN(CCCc2ccccc2)CC1
-4%,CN(C(=O)COc1ccccc1C(=O)NCCOc1ccccc1)c1ccccc1
-18%,COCCCn1c(=O)c2ccccc2n(CC(=O)NCCC2=CCCCC2)c1=O
-14%,COc1ccc(OCCSc2nnc(Cc3cccc4ccccc34)n2N)cc1
22%,O=C(Cc1ccc(S(=O)(=O)N2CCOCC2)s1)NCCC(c1ccccc1)c1ccccc1
-8%,O=C(O)c1ccc(/C=N/NC(=O)c2ccc3c(c2)OCCO3)cc1
-13%,O=C1CC(c2ccccc2)Cc2[nH]c(=O)c(C(=O)Nc3ccc(OC(F)(F)F)cc3)cc21 (stereo not drawn)
-3%,CC(=O)c1ccc(N2CCN(C(=O)c3cc4c(-c5ccccc5F)nn(C)c4s3)CC2)cc1
5%,CC(=O)Oc1ccc(N2C(=O)C3C(C2=O)C2C=CC3C23CC3)cc1[N+](=O)[O-] (stereo not drawn)

(further entries)
VDR inhibitor,molecule
-1%,O=C(COC(=O)c1ccc(S(=O)(=O)N2CCCC2)cc1)Nc1cccc(Br)c1
-9%,NS(=O)(=O)c1ccc(CCNC(=O)c2cc(-c3ccccc3)nc3ccccc23)cc1
-16%,CCc1cccc(C)c1N1C(=O)CC(C)(C)CC1=O
-16%,COc1ccc(-n2ncc3c2CC(C)(C)CC3NC(=O)CCn2nc(C)cc2C)cc1 (stereo not drawn)
1%,CCCOc1cccc(NC(=O)c2cc(C)oc2C)c1
-16%,O=S(=O)(N1CCCCC1)N1CCN(c2ccc(F)cc2)CC1
4%,Cc1ccc2cc(CCNC(=O)c3cccc([N+](=O)[O-])c3)c(=O)[nH]c2c1
11%,CNS(=O)(=O)c1cn(CC(=O)N2CCN(c3ccc(C)cc3C)CC2)cc1S(=O)(=O)NC
-1%,CSc1nc2c(c(=O)[nH]1)C(c1cccc(Cl)c1)CC(=O)N2 (stereo not drawn)
?,Cc1cccc2c(N=O)c(O)[nH]c12
-4%,CCOP(=O)(/C(C#N)=C(/O)c1ccccc1)c1ccccc1 (stereo not drawn)
-11%,COc1cccc2c1Oc1ncccc1N(C(=O)CCC(=O)NCc1cccc(C)c1)C2
-5%,CN1CCc2c(OCc3ccc(F)cc3)cccc2C1=O
-10%,Cc1onc(-c2c(Cl)cccc2Cl)c1C(=O)ONC(=O)c1ccccc1
-10%,CCCC1=Nc2cc(C(=O)NCCOC)ccc2Sc2ccccc21
-20%,Cc1ccc(NC(=O)CCc2nc3sc4c(c3c(=O)[nH]2)CCCC4)nc1
11%,CC(C)c1ccc(C(=O)NCCCc2ccccc2)cc1
-6%,O=C(NC(=S)NCCN1CCOCC1)c1ccc(Cl)cc1Cl
-25%,CCCCNC(=S)N(CCO)Cc1cc2cc3c(cc2[nH]c1=O)OCCO3
-29%,O=C(CN1C(=O)NC2(CCCCC2)C1=O)Nc1ccc(N2CCOCC2)cc1
19%,CCN1C(=O)/C(=C\C=C\c2ccccc2[N+](=O)[O-])SC1=S
-8%,COCCNc1oc(/C=C/c2ccccc2OC)nc1S(=O)(=O)c1ccccc1
-8%,COc1ccc2nc(N)sc2c1
6%,O=C(NC1CCCC1)C(=O)c1c[nH]c2ccccc12
10%,Cc1cc(=O)oc2cc(OCC(=O)N3CCC(O)CC3)c(Cl)cc12
-27%&-2%&10%&-26%,NC[C@@H]1O[C@H](C23CC4CC(CC(C4)C2)C3)Cc2c1ccc(O)c2O
14%,CN1N=C(c2ccc(F)c(F)c2)CSC1=NCc1ccccc1
3%,CCC(=O)Nc1c2c(nn1-c1ccc([N+](=O)[O-])cc1)CS(=O)(=O)C2
-12%,COc1ccc(-c2cc(C(F)(F)F)n3nc(C(=O)Nc4c(C)n(C)n(-c5ccccc5)c4=O)cc3n2)cc1
-8%,O=C(CNC(=O)c1ccccc1)OCC(=O)c1ccccc1

Additional entries follow.
VDR inhibitor,molecule
3%,O=C(c1ccc(S(=O)(=O)Nc2cccc(C(F)(F)F)c2)cc1)N1CCN(c2ccccc2O)CC1
-12%,CC1CCC2(CC1)NC(=O)N(CC(=O)Nc1ccccc1-c1ccccc1)C2=O (stereo not drawn)
-15%,CCCN(C(=O)c1cc2c(=O)oc3ccccc3c2s1)c1cccc(Cl)c1
11%,COc1ccc(/C=N/NC(=O)c2nc(Cl)c(Cl)c(N)c2Cl)cc1COc1ccc(F)cc1F
-7%,O=C(Nc1cc(-c2nc3ncccc3o2)ccc1Cl)c1ccco1
12%,CSc1ccc(/C=N/n2c(C)nnc2C)cc1
-7%,CCCc1nc(NC2CCCCC2)c(C#N)c2c1COC(C)(C)C2
-14%,COc1ccc2cc3cc(C(=O)Nc4ccccc4C)oc3nc2c1
2%,COc1cc(OC)cc(C(=O)Nc2ccccc2-c2nnn(CC(=O)Nc3cc(C)on3)n2)c1
-8%,Cc1ccccc1-c1nnn(CC(=O)N(C)CC(=O)Nc2ccccc2C(F)(F)F)n1
0%,COc1cccc(S(=O)(=O)NC2CCN(C#N)C2)c1 (stereo not drawn)
2%,COc1cc(OC)cc(C(=O)NCC(=O)NC(C)CCc2ccccc2)c1 (stereo not drawn)
-4%,CCOc1ccccc1NC(=S)N1CCN(c2cccc(C)c2C)CC1
2%,CN(C)Cc1c(O)ccc2c(=O)c(-c3ccccc3Cl)c(C(F)(F)F)oc12
5%,Fc1ccc(C(c2nnnn2C2CCCCC2)N2CCCC2)cc1 (stereo not drawn)
3%,COc1ccc(S(=O)(=O)NNC(=O)Cc2csc(C)n2)cc1[N+](=O)[O-]
-17%,CCCCN(C)CCNC(=S)Nc1ccc2nc(N3CCN(CC)CC3)cc(C)c2c1
-1%,Cc1cc(F)ccc1S(=O)(=O)NCC(c1cccnc1)N1CCc2ccccc21 (stereo not drawn)
19%,COc1ccc(-c2cc(-c3cc(F)ccc3O)[nH]n2)cc1OC
-3%,COc1ccc(NC(=O)c2cc(F)cc(F)c2)cc1S(=O)(=O)N1CCCCC1
-13%,CC(=O)OC(Cn1nc(C)cc1C)c1ccccc1 (stereo not drawn)
3%,Cc1nnc(SCc2ccon2)n1-c1ccccc1
-1%,Cc1ccc(CSc2nnc3ccc(-c4ccncc4)nn23)cc1
3%,O=S(=O)(c1ccc(Cl)cc1Cl)n1ccc2cccnc21
-16%,O=C(Nc1nnc(-c2ccccc2)s1)c1ccc(F)cc1
-1%,COc1ccc2oc(C(=O)OCC(=O)N3CC(C)OC(C)C3)c(C)c2c1 (stereo not drawn)
-17%,CCN(CC)CCNC(=O)C1c2ccccc2C(=O)N(CCOC)C1c1ccc(F)cc1 (stereo not drawn)
-1%,O=C(CNc1ccccc1Cl)N/N=C1\CCCc2ccccc21
3%,Cc1ccc(/C=C2\SC(=S)N(CCCC(=O)NC3CCCC3)C2=O)cc1
-6%,CCNc1nc2c(cnn2C)c(=O)[nH]1

Going on with the list:
VDR inhibitor,molecule
-3%,COc1ccc2[nH]c3c(=O)n(CCCCC(=O)NCCN4CCCC4)c(=S)[nH]c3c2c1
-3%,COc1cccc(NC(=O)C(OC(=O)c2cnc(C)cn2)c2ccccc2)c1 (stereo not drawn)
6%,CCS(=O)(=O)N1CCN(S(=O)(=O)c2ccc3ccccc3c2)CC1
2%,CCCC[C@H]1COCCS(=O)(=O)N1Cc1ccccc1F
5%,O=C(NCc1ccccc1)C(=O)NCC(c1ccco1)S(=O)(=O)c1ccccc1 (stereo not drawn)
-1%,Cc1ccc(S(=O)(=O)NC(=NCc2ccccc2)c2ccc(F)cc2)cc1
-15%,O=C(O)C(c1cccs1)C1(O)CCCCC1 (stereo not drawn)
1%,O=C(COc1ccccc1Cl)NNC(=O)c1ccc2c(=O)n3c(nc2c1)CCC3
12%,Cn1nnnc1SCc1ccc([N+](=O)[O-])cc1
-2%,Cc1ccc(S(=O)(=O)N(CC(=O)N/N=C/c2ccc(F)cc2)c2cccc3cccnc23)cc1
-18%,COCCn1c(SC(C)C(=O)NC2CC2)nnc1-c1cccc(C)c1 (stereo not drawn)
-12%,COc1ccc(C(C)(C)C)cc1NC(=O)c1ccc2ncsc2c1
-22%,Cc1sc2ncnc(N3CCC(C(=O)N(CC(C)C)c4nc5ccccc5s4)CC3)c2c1C
-1%,Cn1c(=O)oc2cc(S(=O)(=O)Nc3ccc4c(c3)OCCO4)ccc21
-10%,O=S(=O)(c1ccc2c(Cl)cccc2c1)N1CCN(c2nc(-c3cccs3)nc3ccccc23)CC1
-4%,O=C(Nc1ccccc1C(=O)O)c1ccc(Br)c(S(=O)(=O)NCc2ccccc2)c1
22%,COc1ccccc1OCCCn1c(=O)oc2ccccc21
-12%,COc1ccc(CCNC(=O)c2cc3c(=O)n4ccccc4nc3n(C3CCCCC3)c2=N)cc1OC
-3%,CCOc1ccc2nc(NC(=O)CCn3cccc3)sc2c1
-5%,COc1ccc(CCCO[C@@H](Cn2ccnc2)c2ccc(OC)cc2)cc1
2%,c1ccc(Cn2c(-c3ccccc3)c[n+]3c2SCCC3)cc1
3%,Cc1c(C(=O)O)oc2c1/C(=N\O)CC(C)(C)C2
26%,CCCc1ccc(OCCNC(C)=O)cc1
-9%,CN(C(=O)c1ccc(S(=O)(=O)NC2CCCC2)cc1)C1CCCCC1
-9%,CCC(C)(C)NC(=O)c1sccc1Oc1ccc(F)cc1[N+](=O)[O-]
-9%,CC1=C(C(=O)N2CCOCC2)C(c2ccsc2)C2=C(CCCC2=O)N1 (stereo not drawn)
-9%,N#CC1(c2ccccc2)CCN(S(=O)(=O)c2ccc(OC(F)(F)F)cc2)CC1
-4%,COc1ccc(N/N=C(\C=N\O)C(=O)c2ccc(OC)cc2)cc1
10%,COc1cc(/C(C)=N/NC(=O)CSc2nncn2C)ccc1OCc1ccccc1Cl
-3%,COc1ccc2[nH]c3c(c2c1)CCN1C(=O)C(CC(=O)NC(C)(C)C)C[C@H](C(=O)N(C(C)C)C(C)C)[C@@]31C (stereo partly drawn)

Ordered by length of the SMILES (rising): part of the list above
VDR inhibitor,molecule
26%,CCCc1ccc(OCCNC(C)=O)cc1
22%,COc1ccccc1OCCCn1c(=O)oc2ccccc21
-3%,COc1ccc2[nH]c3c(c2c1)CCN1C(=O)C(CC(=O)NC(C)(C)C)C[C@H](C(=O)N(C(C)C)C(C)C)[C@@]31C (stereo partly drawn)

Remaining list, next part
VDR inhibitor,molecule
14%,COc1ccc(NC(=O)CSc2nnc3c4c(nc(-c5ccccc5)n23)CC(C)(C)OC4)cc1
4%,O=C(NCc1ccc2c(c1)OCO2)C1CCN(c2ccc(S(=O)(=O)N3CCCC3)cc2)CC1
11%,COc1ccc(S(=O)(=O)N2CCOC23CCN(S(=O)(=O)c2ccc(F)cc2C)CC3)cc1
2%,C=CCn1c(SCc2csc(-c3ccc(C)cc3)n2)nnc1-c1ccccc1OC
14%,COc1ccc(-c2oc3ccccc3c2C(=O)OCc2ccc(O)cc2)cc1
-1%,Cc1ccccc1CSc1nncn1N

Some values from the entries so far.
COc1ccc(NC(=O)CSc2nnc3c4c(nc(-c5ccccc5)n23)CC(C)(C)OC4)cc1 in VDR inhibitor reads 14%
COc1ccc(-c2oc3ccccc3c2C(=O)OCc2ccc(O)cc2)cc1 in VDR inhibitor reads 14%
O=C(NCc1ccc2c(c1)OCO2)C1CCN(c2ccc(S(=O)(=O)N3CCCC3)cc2)CC1 in VDR inhibitor reads 4%
